# Screens: PubChem BioAssay, National Center for Advancing Translational Sciences (NCATS)
# GLA inh pH 4.5 = blocks human alpha-galactosidase A at pH 4.5 | 230,000 tested, under 10 active | activity change, negative = inhibition, % at 105 µM | purified enzyme, 4-MU-alpha-Gal fluorescence, pH 4.5 | P06280; inconclusive = small, poorly fitted or top-dose-only inhibition, or a rising curve; inactive = flat fitted curve, though single readings scatter; no compound was filed as active;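 note: 0% = full activity with enzyme and -100% = basal without enzyme; dose as in the result columns while the protocol names 77 µM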
# Target sequence (P06280 whole entry, looked up): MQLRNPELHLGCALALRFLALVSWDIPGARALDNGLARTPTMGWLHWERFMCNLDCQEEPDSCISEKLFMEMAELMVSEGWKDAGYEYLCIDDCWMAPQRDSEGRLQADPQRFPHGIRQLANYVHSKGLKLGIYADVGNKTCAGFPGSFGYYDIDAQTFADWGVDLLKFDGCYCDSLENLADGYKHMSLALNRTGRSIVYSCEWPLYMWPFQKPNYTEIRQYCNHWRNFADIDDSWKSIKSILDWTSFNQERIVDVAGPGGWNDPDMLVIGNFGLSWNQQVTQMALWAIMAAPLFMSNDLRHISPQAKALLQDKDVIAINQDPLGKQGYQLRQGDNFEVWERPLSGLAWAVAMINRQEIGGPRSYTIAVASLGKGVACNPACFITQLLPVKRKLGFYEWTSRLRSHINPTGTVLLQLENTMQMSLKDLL
# miR-21 reporter = miR-21 reporter, rising signal. HeLa miR-21 FLuc reporter, luciferase, 48 h. Potency, µM (series often up to 38.3 µM), inactives show top-dose reporter change, positive = more light. 340,000 tested, under 10 active. AID 2288; active = well fitted rising curve with a large enough effect; inconclusive = small, poorly fitted or top-dose-only effect; inactive = no such curve, though single readings can be large or run the other way;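 note: % of control where 0% means no effect; miR-21 action dims this reporter so a rising signal means less miR-21 action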
#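 HeLa cells stably expressing CMV-driven firefly luciferase with a downstream miR-21 binding sequence, endogenously expressing miR-21, were treated with titrations (up to about 40uM final) for 48 hours at 37 degree Celsius. Luciferase luminescence was read after lysis.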
# Rango complex inh = inhibitors of Rango-importin beta complex formation; Q14974; Rango CFP/YFP FRET sensor + importin beta, 45 min; Potency, µM (doses to about 92.2 µM), for inactives: at the highest dose inhibition of complex formation; 340,000 compounds, 0.031% hits; AID 540263; active = rising FRET ratio curve, often small or poorly fitted; inconclusive = mostly compound fluorescence or quenching in the first reads; inactive = flat curves in all reads;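 note: potency is the fitted concentration of half-maximal effect; 0% = DMSO wells and 100% = buffer wells lacking importin beta; nearly all actives have a fitted effect of over 15% in size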
#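 FRET biosensor (snurportin 1 IBB flanked by EYFP and cerulean), 50 nM, with compound 5 min, then 0.125 microM importin beta in PBS, 1 mM DTT, 0.02% Tween-20, 0.1% BSA. CFP/YFP ratio read after 45 min at room temperature; pre-read flags interference.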
# Rango release inh = inhibitors of RanGTP-induced Rango-importin beta complex dissociation; O95149+P62826; Biochemical FRET Rango-importin beta, RanGTP-induced dissociation; Potency, µM (doses to about 46.1 µM), without a hit: at the top dose activity change, negative = inhibition; 340,000 compounds, 0.071% hits; AID 540253; active means falling FRET ratio curve, often poorly fitted, with flat reads before Ran was added; inconclusive means other falling curves, or compound fluorescence or quenching; inactive means flat or rising ratio curve;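 note: potency is the fitted concentration of half-maximal effect; % of control where 0% means no effect; nearly all actives have a fitted effect of over 45% in size; -100% = wells without RanGTP and RCC1; the record marks most hits as doubtful in a second field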
#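 Compounds preincubate 5 min with complex of recombinant Rango and importin beta in PBS with 1 mM DTT. Ran (0.6 uM) loaded with 2 mM GTP plus 0.2 uM RCC1 starts dissociation; FRET is recorded 45 min later.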
# * marks the source's active call; other numbers are inactive results; ? = inconclusive; · = no result given; [ ] = remark or other dose.
structure,GLA inh pH 4.5,miR-21 reporter,Rango complex inh,Rango release inh
Cc1ccc(C(=O)N2CC(C)OC(C)C2)c(Cl)c1 (stereo unspecified),-3,1%,-5.0%,6%
COc1cccc(N(Cc2nnc3n2CCCCC3)C(=O)Nc2ccccc2F)c1,-1,-4%,2.7%,12%
Cc1noc(C)c1CSc1nc2sc(C)c(C)c2c(=O)n1-c1ccccc1,0,-6%,-1.2%,5%
COc1ccc(C(C(=O)NC(C)(C)C)N(C(=O)CNC(=O)c2cccs2)c2ccc(NC(C)=O)cc2)cc1OC (stereo unspecified),-4,1%,-0.7%,0%
COc1cc(/C=N/N=C(\N)c2nonc2N)cc(OC)c1OC,0,-18%,-1.0%,-4%
Cc1ccc(NC(=O)CN(C)C(=O)Cn2nnc(-c3ccccc3)n2)cc1,·,·,0.8%,-11%
CCSc1nc2cc(OC)c(OC)cc2c(=O)n1CCc1ccccc1,-1,0%,-2.9%,1%
Cc1ccnc(NC(=O)COc2c(C)cc(C)cc2[N+](=O)[O-])c1,6,-11%,-3.4%,-5%
CCC/C(=N/NC(=O)c1csc(C)c1C)c1ccc(Cl)s1,-2,-50%,-0.1%,19%
CN1CCN(C(=O)c2ccc3nc(-c4ccccc4)c(-c4ccccc4)nc3c2)CC1,-9,-1%,-2.1%,-6%
O=C(CN1C(=O)NC2(CCCCCCC2)C1=O)NCc1cccs1,1,-5%,-0.3%,-3%
C=CCc1ccc(OCCOc2cccc3ccc(C)nc23)c(OC)c1,2,-20%,5.8%,12%
Cc1nnc(NC(=O)CN2C(=O)NC3(CCCC3)C2=O)s1,·,·,4.2%,-7%
c1ccc(CCC2Cc3ccccc3N2)cc1 (stereo unspecified),·,·,5.8%,-9%
Cc1ccc(C(=O)Nc2cccc(NC(=O)c3ccc(C)cc3)n2)cc1,·,·,-3.3%,-1%
COc1ccc2[nH]c3c(c2c1)CCN1C(=O)C(CC(=O)NCCC2=CCCCC2)C[C@H](C(=O)N2CCOCC2)[C@@]31CCC1CCCC1 (stereo partly specified),·,·,0.6%,-1%
COc1ccc(-c2nn(-c3ccccc3)cc2C(=O)NCC(c2cccs2)N2CCOCC2)cc1 (stereo unspecified),·,·,-2.0%,11%
CC(=O)OCC1(C)CN(c2ccccc2)N(C(C)=O)C1=O (stereo unspecified),1,-15%,5.3%,8%
Cc1ccc(C(=O)c2coc3ccc(OCC(=O)O)cc23)cc1,2,1%,2.4%,-5%
CCOC(=O)Cc1csc(NC(=S)NC(=O)c2ccc([N+](=O)[O-])cc2)n1,1,-3%,-3.0%,10%

# Of the compounds above, these have a thiophene ring, fused or not.
structure,GLA inh pH 4.5,miR-21 reporter,Rango complex inh,Rango release inh
Cc1noc(C)c1CSc1nc2sc(C)c(C)c2c(=O)n1-c1ccccc1,0,-6%,-1.2%,5%
COc1ccc(C(C(=O)NC(C)(C)C)N(C(=O)CNC(=O)c2cccs2)c2ccc(NC(C)=O)cc2)cc1OC (stereo unspecified),-4,1%,-0.7%,0%
CCC/C(=N/NC(=O)c1csc(C)c1C)c1ccc(Cl)s1,-2,-50%,-0.1%,19%
O=C(CN1C(=O)NC2(CCCCCCC2)C1=O)NCc1cccs1,1,-5%,-0.3%,-3%
COc1ccc(-c2nn(-c3ccccc3)cc2C(=O)NCC(c2cccs2)N2CCOCC2)cc1 (stereo unspecified),·,·,-2.0%,11%

# Additional results
structure,GLA inh pH 4.5,miR-21 reporter,Rango complex inh,Rango release inh
N#Cc1ccccc1NC(=O)CN(Cc1ccccc1)Cc1ccccc1,·,8%,5.6%,9%
S=C(NC1CCCC1)NN1CCOCC1,6,-3%,4.6%,16%
Cc1nc(-c2cccc(NC(=O)c3ccc(-n4nccc4C)cc3)c2)cs1,·,·,4.5%,-14%
O=C(O)c1cc(-c2ccccc2)nc(-c2ccccc2)c1,·,·,?,-14%
CCCCOc1cccc(C(=O)NC(=S)Nc2ccc(Cl)c(C(=O)O)c2)c1,-5,-13%,4.2%,16%
CC(=O)c1ccc(NC(=O)CN2CCC(C(=O)c3ccc(F)cc3)CC2)cc1,·,1%,-2.0%,9%
O=C/C(=C\Nc1ccc(C(=O)N2CCOCC2)cc1)c1nc2ccccc2o1,-14,2%,8.9%,-4%
CCOc1ccc(-c2csc(C3COc4ccccc4O3)n2)cc1 (stereo unspecified),·,·,-2.3%,-3%
CN(c1ccc(C(=O)Nc2cccnc2)cc1)S(=O)(=O)c1ccc(Cl)cc1,·,20%,-1.6%,1%
O=C(OCc1cnc(Cl)s1)c1cccc(Cl)c1,2,-6%,2.1%,-9%
CCOC(=O)CNC(=O)CN1C(=O)CC(c2ccco2)Sc2ccccc21 (stereo unspecified),·,-24%,-2.3%,10%
COc1cccc(NC(=S)N(CCc2nc3cc(C)c(C)cc3[nH]2)Cc2cccnc2)c1,1,-11%,0.0%,10%
CCN(CC)S(=O)(=O)c1cc(NC(=O)COC(=O)Cn2cnc3ccccc32)ccc1C,-2,-1%,-0.7%,-13%
CCS(=O)(=O)n1nc(C(=O)N2CCOCC2)nc1N,-2,2%,0.2%,13%
COc1ccc(-c2ccc(C(=O)O)o2)c([N+](=O)[O-])c1,-1,-4%,?,-20%
Cc1ccccc1N(C(=O)c1cccs1)c1nc2ccccc2s1,-2,-3%,0.2%,0%
Cc1ccccc1N1CC(C(=O)NC2CCCC2)CC1=O (stereo unspecified),·,9%,1.1%,2%
Cc1cc(C)cc(C(=O)NCC(=O)OC(C)C(=O)N(C)c2ccccc2)c1 (stereo unspecified),-8,2%,3.1%,-17%
CCOC(=O)Cn1c(=O)oc2cc(S(=O)(=O)Nc3cc(OCC)ccc3OCC)ccc21,1,-2%,-1.1%,4%
Cc1c2cnn(-c3ccccc3)c(=O)c2c(C)n1CCCC(=O)NCCN1CCN(C)CC1,-5,-7%,-3.4%,-5%

# Arranged by the number under GLA inh pH 4.5 (ascending): four from the list above.
structure,GLA inh pH 4.5,miR-21 reporter,Rango complex inh,Rango release inh
Cc1c2cnn(-c3ccccc3)c(=O)c2c(C)n1CCCC(=O)NCCN1CCN(C)CC1,-5,-7%,-3.4%,-5%
Cc1ccccc1N(C(=O)c1cccs1)c1nc2ccccc2s1,-2,-3%,0.2%,0%
COc1cccc(NC(=S)N(CCc2nc3cc(C)c(C)cc3[nH]2)Cc2cccnc2)c1,1,-11%,0.0%,10%
S=C(NC1CCCC1)NN1CCOCC1,6,-3%,4.6%,16%

# (continued)
structure,GLA inh pH 4.5,miR-21 reporter,Rango complex inh,Rango release inh
O=C1C(Cl)=C(N2CCC(C(=O)O)CC2)C(=O)c2ccccc21,3,1%,3.3%,-2%
COc1ccccc1N(CC(=O)N(CC(C)C)CC(C)C)S(=O)(=O)c1cccs1,-6,11%,2.1%,-6%
Nc1nc(Cl)cc(Oc2ccc(Cl)cc2)n1,9,-15%,?,20%
CC1Sc2n(c3ccccc3[n+]2C)N=C1c1ccccc1 (stereo unspecified),-1,?,0.6%,1%
Cc1c(C(=O)N2CCCC2)c(S(=O)(=O)N2CCN(c3ccccc3F)CC2)c(C)n1C,·,-1%,-1.9%,-4%
Cc1coc2c(C)c3oc(=O)c(CCC(=O)N4CCC(C(=O)NCCCC(=O)O)(c5ccccc5)CC4)c(C)c3cc12,·,-3%,2.6%,5%
Cc1cccc(C)c1N=C1SC(CC(=O)Nc2c(C)cccc2C)C(=O)N1CCc1ccccn1 (stereo unspecified),7,-2%,5.1%,0%
O=c1[nH]cnc2c1nc(SCc1ccccc1)n2C1OC(CO)C(O)C1O (stereo unspecified),8,2%,5.6%,4%
O=C1NC(=O)/C(=C/c2ccc(-c3cccc([N+](=O)[O-])c3)o2)S1,·,-13%,-0.4%,1%
O=c1[nH]cnc2c1C(c1ccccc1)c1c(nc[nH]c1=O)O2,·,4%,-3.8%,5%
CCOC(=O)C1CCN(c2ccc(-c3cccs3)nn2)CC1,·,-37%,-0.2%,-11%
COc1cccc(C(=O)O/N=C(\N)c2ccc([N+](=O)[O-])cc2)c1,-11,-30%,-1.2%,4%
CCOc1ccc(CCNC(=O)CCN2C(=O)COc3ccccc32)cc1OCC,8,-1%,0.0%,-2%
CC1CN(C(=O)COC(=O)CSc2ccc([N+](=O)[O-])cc2)CC(C)O1 (stereo unspecified),·,·,0.0%,-29%
CCC1=Nc2cc(C(=O)NCCN3CCCC3)ccc2Sc2ccccc21,·,-9%,0.2%,-15%
C[C@H](CO)N1C[C@H](C)[C@@H](CN(C)C(=O)NC2CCCCC2)Oc2ccc(NS(=O)(=O)c3ccc(F)cc3)cc2C1=O,·,·,-1.8%,2%
CC(=O)Oc1ccc(N2C(=O)CCC2=O)cc1,-5,-2%,1.2%,6%
Cc1ccc(C(=O)NCC(=O)Nc2cccc(S(=O)(=O)NC3=NCCCCC3)c2)cc1C,0,-7%,-1.5%,-4%
COc1ccc(C2=NOC(C(=O)N3CCCc4ccccc43)C2)cc1 (stereo unspecified),-1,-23%,2.3%,-13%
COc1cccc(CNC(=O)C2CC(=O)N(C3CCCCC3)C2)c1 (stereo unspecified),·,-3%,-2.2%,2%

# (continued)
structure,GLA inh pH 4.5,miR-21 reporter,Rango complex inh,Rango release inh
COc1cc(NC(=O)c2cc3nc(-c4ccccc4)cc(-c4ccccc4)n3n2)cc(OC)c1OC,8,-1%,0.8%,0%
O=[N+]([O-])c1cccc(S(=O)(=O)Nc2ccc3cn[nH]c3c2)c1,·,·,-1.5%,-9%
Cc1ccc(C)c(N2CCN(C(=O)c3ccccc3Br)CC2)c1,0,-4%,-0.3%,1%
O=C(c1ccco1)N1CCN(C(=O)N2c3ccccc3Sc3ccccc32)CC1,-7,18%,-5.4%,19%
Cc1ccc(C(=O)NCC(=O)OCC(=O)NC(C)C2CC3CCC2C3)cc1 (stereo unspecified),·,·,2.2%,-4%
COc1ccc(CN2CC34C=CC(O3)C(C(=O)O)C4C2=O)cc1 (stereo unspecified),-9,-1%,1.7%,7%
CCN(CC(=O)Nc1cccc(C#N)c1)CC(=O)Nc1cccc(OC)c1,-10,-12%,0.0%,16%
COC(=O)CSc1nnc(Cc2ccccc2)n1-c1ccc(C)cc1,0,-25%,-1.6%,-2%
CCCNC(=O)COc1ncnc2sccc12,0,0%,1.3%,-5%
O=C(NCc1ccc(F)cc1)c1cc2n(n1)C(C(F)(F)F)CC(C1CC1)N2 (stereo unspecified),-1,-7%,5.5%,6%
CN(C)c1ccc(C(CNC(=O)c2cccs2)N(C)C)cc1 (stereo unspecified),·,-38%,0.2%,7%
COc1cccc(CC(=O)Nc2nc(-c3cccnc3)cs2)c1,2,-3%,4.5%,5%
CCC(C)(C)n1nnnc1C(c1cccs1)N1CCN(c2nc3ccccc3s2)CC1 (stereo unspecified),-1,-1%,0.0%,20%
C/C(=N\NC(=O)COc1ccccc1-c1ccccc1)c1ccc(O)cc1O,1,?,1.0%,59%
COc1ccc(-c2ccc(C#N)c(SCC(=O)OCc3ccccc3)n2)cc1OC,8,-12%,?,?
CC(C)CC(c1nnnn1Cc1ccco1)N1CCN(C2CCCC2)CC1 (stereo unspecified),-15,1%,5.4%,15%
O=C1CCCC(=O)N1c1ccc(N2CCOCC2)c([N+](=O)[O-])c1,1[21.1 µM],3%,1.7%,-6%
O=C(COc1ccccc1C(=O)N/N=C\c1ccc(O)c(O)c1)N/N=C/c1ccc(O)c(O)c1,-5,-29%,-0.6%,0%
O=C(Nc1ccccc1)Nc1cccc(-c2cn3cccnc3n2)c1,8,-1%,-1.1%,-7%
O=C(CC1(O)C(=O)Nc2ccccc21)c1cccc(Br)c1 (stereo unspecified),-3,3%,0.1%,3%
CN(Cc1ccccc1)CC1C2CCC(C2)C1O (stereo unspecified),·,·,0.5%,-19%
COCCOC(=O)CC1=NC(=O)CS1,6,0%,4.8%,10%

# Not all compounds are listed; count on the stated rates, not on these rows.
